Anthrax LT inh: anthrax lethal toxin internalization inhibition; Cells, anthrax lethal toxin internalization, FRET ratio (460/530); 0.67% of 70,000 active; Potency, µM (highest dose often 40 µM), for the others: at the highest dose activity change, negative = inhibition, usual class: inhibitors; AID 912; active = well fitted falling ratio curve with the 530 nm signal flat; inconclusive = other ratio curves, or a change in one channel alone; inactive = flat curves in the ratio and both channels; the % refers to the ratio; note: % is set by controls: 0 for no effect and ±100 for the full control effect; nearly all actives have a fitted effect of over 50% in size; tested in ME-180 cells; beta-lactamase reporter
SmPrx2 inh: Schistosoma mansoni Prx2 inhibition. 0.07% of 65,000 active. Potency, µM. S. mansoni Prx2 activity coupled to TGR/GSH (TGR is thioredoxin glutathione reductase), NADPH fluorescence loss, qHTS; some inactives read as strong as hits; active means full or partial inhibition curve with a strong effect at the top dose; inconclusive means weaker partial or single-point curve; inactive means no accepted curve; note: series up to 57 µM; many of its hits are not listed in these tables
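Prx2 activity was followed as the loss of NADPH fluorescence (ex 365/em 450 nm), read every 30 sec for 8 min after H2O2 start. The enzyme mix (50 nM Prx2, 25 nM TGR, GSH, NADPH; pH 7.4 phosphate buffer) was incubated with compound for 15 min at room temperature first.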
* marks the source's active call; other numbers are inactive results; i = inactive; ? = inconclusive; . = no result given; & = joins results of further samples; [ ] = dose if it differs, or a comment. Potency is the fitted concentration of half-maximal effect. The list is partial. The share of hits here may be higher or lower than overall.

molecule,SmPrx2 inh,Anthrax LT inh
CS(=O)(=O)N1CCN(c2nc(-c3ccccc3)cs2)CC1,.,-27%
CCOC(=O)CSc1nc2ccc(NC(C)=O)cc2s1,>57,?
CS(=O)(=O)N(CC(=O)N1CCC(C(N)=O)CC1)C1CCCCC1,>57,-1%
Cc1occc1C(=O)Nc1cccc2ccccc12,>57,10%
Cc1cc2ncn(N)c2cc1C,>57,.
Cn1c(C(=O)Nc2ccc3c(c2)OCO3)cc2sccc21,>57,-11%
CN(C)C(=O)COc1ccc2ccc(=O)oc2c1,.,-3%
CSc1ccccc1NC(=O)CN(c1ccccc1)S(=O)(=O)N(C)C,>57,3%
C[C@H](O)C(=O)C1=Nc2c(nc(N)[nH]c2=O)NC1,>26,-9%
Cc1[nH]c2ccccc2c1NC(=O)CN1CCN(c2cccc(C(F)(F)F)c2)CC1,>57,?
Cc1ccc(-n2nnnc2SCC(=O)N2CCN(C(=O)c3ccco3)CC2)c(C)c1,>57,-14%
O=C(O)c1ccccc1NS(=O)(=O)c1ccc2c3c(cccc13)C(=O)N2,>57,-3%
O=C(c1ccco1)N1CCN(C(=O)c2sccc2-c2ccccc2)CC1,>57,-20%
O=C(O)c1cc2nc(C3CC3)cc(C(F)(F)F)n2n1,>57,-4%
C1CCC(n2nnnc2CN2CCN(C3CCCC3)CC2)CC1,>57,0%
CC(C)OCCCNC(=O)C1CCC(=O)N1C(C)C (stereo not given),>57,3%
COc1ccc(CNc2nc(-c3cccnc3)nc3ccccc23)c(OC)c1,>57,-16%
CCc1ccccc1NC(=O)C1CCCN(S(=O)(=O)c2c(C)noc2C)C1 (stereo not given),>57,5%
COC(=O)c1cccc(N2C(=O)c3ccccc3S2(=O)=O)c1,>57,3%
CO[C@H]1C[C@@H]2C[C@H](O)C[C@@H](CC(=O)O[C@@H](/C=C\CC(C)C)C[C@@H]3CC[C@H](C)[C@@H](C1)O3)O2,.,5%[8 µM]
COc1cc2nc(SCC(=O)NCc3ccco3)n(Cc3ccc(Cl)cc3)c(=O)c2cc1OC,>57,?
CC1CCN(C(=O)COC(=O)c2n[nH]c3ccccc23)CC1,>57,2%
O=C(CSc1nnc(-c2cc3ccccc3cc2O)n1Cc1ccco1)c1ccc(F)cc1,>57,?
COC(=O)C(CC(C)C)NC(=O)c1cc(OC)c(OC)c(OC)c1 (stereo not given),.,9%
Cc1ccc2c(C(=O)CN3CCN(C4CCCCC4)CC3)c(C)[nH]c2c1,>57,-8%
Oc1cccc(O)c1O,.,6%
COC(=O)COc1ccc(S(=O)(=O)Nc2ccc3c(c2)OCCO3)cc1Cl,>57,?
Cc1sc2ncn(CC(=O)N(CC(=O)NC3CCCC3)Cc3cccs3)c(=O)c2c1C,>57,6%
O=C(COc1ncnc2ccccc12)NC(=O)NCc1ccccc1,>57,?
COc1cccc(NC(=O)C2CCCN(S(=O)(=O)c3ccc(-n4cnnn4)cc3)C2)c1 (stereo not given),>57,?
CN(CCC#N)c1ncnc2scc(-c3ccccc3)c12,>57,.
CC1(C)NC(=O)N(CC(O)COC2CCCCC2)C1=O (stereo not given),>57,?
Cc1cccc2nc(CNc3ccc(F)cc3)cn12,>57,-3%
O=C(CCS(=O)(=O)c1cc(Br)cc2c1N(C(=O)C1CC1)CC2)NCc1ccco1,>57,2%
CCCCn1c(O)c(C=NCCCN(CC)CC)c(=O)[nH]c1=O,>57,-5%
CCc1ccccc1NC1c2ccccc2C(=O)N1c1cccnc1 (stereo not given),>57,9%
COc1ccc(C2CC(=O)C3=C(C2)NC(C)=C(C#N)C3c2ccc(N(C)C)cc2)cc1 (stereo not given),>57,?
CCCCS(=O)(=O)Nc1ccc2c(c1)ncn2C1CCCCC1,>57,.
Cc1ccc(OC(=O)NC2CCS(=O)(=O)C2)cc1C (stereo not given),>57,-7%
Cc1cccc(N2C(=O)NC(=O)C3(Cc4cc(C)ccc4N(C)C3)C2=O)c1 (stereo not given),>57,0%
CSc1ncnc2nc[nH]c12,>57,-10%
Cc1cc(C)nc(NC(=O)C(C)N2C(=O)c3ccccc3C2=O)n1 (stereo not given),>57,3%
CC(O)CC(C)O (stereo not given),.,-9%
Cc1c(C(=O)Nc2cccc(C(F)(F)F)c2)oc2ccc(S(=O)(=O)N3CCOCC3)cc12,>57,?
CC(C)c1cc(C(=O)Nc2cc(Cl)ccc2O)no1,>57,?
c1cncc(-c2nnc(-c3cccnc3)nn2)c1,>57,-11%
FC(F)(F)c1nnc2sc(-c3ccncc3)nn12,>57,9%
NC1=NC2(CCC(c3ccccc3)CC2)n2c(nc3ccccc32)N1 (stereo not given),>57,?
Cc1noc(C)c1C(=O)N1CCC2(CCN(Cc3ccc(C#N)cc3)CC2)CC1,i,-1%
O=C(C1CCN(CC2CCCCC2)CC1)N1CCCC1,>57,-1%
Cc1ccc(-n2nc3c(c2NC(=O)c2c(-c4ccccc4Cl)noc2C)CSC3)cc1,>57,-23%
CN1CCN(C(=O)c2cc(-c3ccc(O)cc3)on2)CC1,>57,-2%
O=C(O)CCNCC(=O)O,>57,-12%[8 µM]
COc1ccc(CNc2ncnc3ccc(-c4ccccc4C#N)cc23)c(OC)c1,>57,?
CC1=C(C(=O)Nc2ccc(Cl)cc2)C(c2cccs2)n2nnnc2N1 (stereo not given),>57,?
O=C(CSc1nnc(-c2cccs2)o1)N1CCc2ccccc21,>57,-2%
CN(C)C(=O)Oc1ccc(C(=O)c2ccccc2)cc1,>57,6%
N=Cc1c(O)n(-c2cccc(Cl)c2)c(=O)[nH]c1=O,>57,2%
CC1CCCCN1CCNC(=O)c1cnn2ccccc12 (stereo not given),.,-9%
Cn1ncc(C#N)c1/N=C/N1CCOCC1,>57,-2%

(cont.)
molecule,SmPrx2 inh,Anthrax LT inh
CCOC(=O)N1CCN(C(=O)CSc2nnc(COc3ccc(Cl)cc3)o2)CC1,>57,-5%
C[Se]C[C@@H](N)C(=O)O,>57,2%
O=C(NCC1CCCO1)c1ccccc1-c1nc(-c2ccccc2)no1 (stereo not given),>57,6%
Cc1cc(C(c2nnnn2Cc2ccccc2)N2CCOCC2)c(C)n1-c1ccc2c(c1)OCO2 (stereo not given),>57,-2%
CC1(C)Cc2nc3oc4c(N(CCO)Cc5ccccc5)ncnc4c3cc2CO1,>57,-4%
CCOC(=O)c1ccccc1NC(=O)COc1ccccc1,>57,-5%
CCOc1cc(S(=O)(=O)NC2CC(C)(C)NC(C)(C)C2)ccc1F,>57,?
CN1CCN(C(=O)c2ccccc2-c2nc(-c3ccc(Cl)cc3)no2)CC1,>57,.
CC1(C)CC(=O)CC(C)(C)N1OC(=O)c1ccncc1,>57,13%
Cc1c(C)c2cc(Cl)c(O)c(CN(C)C)c2oc1=O,.,11%
O=C(N1CCCCCC1)N1CCN(S(=O)(=O)N2CCCCC2)CC1,>57,-12%
COC(=O)c1cccc(Cn2nnc3ccccc3c2=O)c1,>57,-1%
CCOC(=O)N1CCC(NC(=O)c2cc3c(-c4ccc(Cl)cc4)nn(C)c3s2)CC1,>57,-2%
CCOC(=O)C1=C(N)Oc2cc(C)n(CCc3ccc(OC)c(OC)c3)c(=O)c2C1c1cccnc1 (stereo not given),>57,?
Fc1ccc(C(c2nnnn2C2CCCC2)N2CCN(Cc3ccccc3)CC2)cc1 (stereo not given),>57,-6%
COC(=O)c1ccccc1NC(=O)C1CCCC1,>57,3%
COc1ccc(Cl)cc1NC(=O)N1CCN(CCc2ccccc2)CC1,>57,5%
O=C(O)CCc1ccc(-c2ccc(F)cc2)n1CCC(=O)O,>57,.
O=C(Nc1cc(C(=O)N2CCCC2)ccc1N1CCCC1)c1ccccc1F,>57,27%
Oc1ccc(N=Cc2ccc(-c3cccs3)s2)cc1,.,?
COc1ccc(NC(=O)c2ccc3c(c2)C(=O)N(Cc2cccnc2)C3=O)cc1,>57,0%
CC(C)=CCC/C(C)=C/CCC(C)NCCN1CCNCC1 (stereo not given),>57,5%
CN(C)CCCSC(=N)N,>57&>57,?
O=C(CCCCCC(=O)N(CCO)CCO)N(CCO)CCO,>57,0%
O=c1c[n+]([O-])c2ccccc2n1OCc1ccccn1,>57,-4%
COc1cc2nc(C3CC3)n(NC(=O)c3ccc(F)cc3)c(=O)c2cc1OC,>57,2%
CCOc1cc(S(=O)(=O)Nc2ccc(Cl)cn2)ccc1F,>57,18%
Nc1cc(=O)[nH]n1C1CCN(c2ccccc2)CC1,>57,5%
CCC[C@@](C)(COC(N)=O)COC(=O)NC(C)C,>57&>57,-5%[3.58 µM]
CC(=O)Oc1cccc(N2C(=O)CC(Nc3ccc(N4CCOCC4)cc3)C2=O)c1 (stereo not given),>57,.

Profiles as entered above. Values in the order: SmPrx2 inh | Anthrax LT inh
Record of CCOc1cc(S(=O)(=O)Nc2ccc(Cl)cn2)ccc1F → >57 | 18%
Record of CCOc1cc(S(=O)(=O)NC2CC(C)(C)NC(C)(C)C2)ccc1F → >57 | ?
Record of O=C(O)CCc1ccc(-c2ccc(F)cc2)n1CCC(=O)O → >57 | .

Carrying on:
molecule,SmPrx2 inh,Anthrax LT inh
CC(=O)OC(C(=O)NCCc1ccccc1)c1cccnc1 (stereo not given),>57,0%
CCOc1ccc(C(=O)NCCCn2ccnc2)cc1,>57,-6%
CCCCn1cc(C(C)(C)C)c(C#N)c1NC(C)=O,>57,-8%
O=C1CC(c2nc3ccccc3[nH]2)CN1c1ccccc1 (stereo not given),>57,2%
COC(=O)c1[nH]c(C)c(/C(O)=C2\C(=O)C(=O)N(CCN(C)C)C2c2ccccc2OC)c1C (stereo not given),>57,-3%
CC(=O)c1nccs1,.,?
Nc1ccn([C@H]2CC[C@H](CO)O2)c(=O)n1,>57,-4%
N#CC(C#N)=CNCCN1CCN(C=C(C#N)C#N)CC1,>57,-4%[8 µM]
COC(=O)C1CCN(C(c2cccs2)c2sc3nc(C)nn3c2O)CC1 (stereo not given),>57,11%
COc1cc(CN2CCC(C(=O)N3CCN(c4ccccc4F)CC3)CC2)cc(OC)c1OC,>57,-3%
O=C(NC1CC2CCCC(C1)N2C(=O)Nc1ccccc1)c1ccncc1 (stereo not given),>57,?
CCOC(=O)c1cc2sc(C)cc2n1CC(=O)NCCc1ccccc1,>57,10%
CCS(=O)(=O)N1CCCC(C(=O)NCCCOC(C)C)C1 (stereo not given),>57,0%
Cc1cc(C)nc(NS(=O)(=O)c2ccc(NC(=O)NC3CCCCC3)cc2)n1,>57,0%
O=C(Oc1ccccc1)N1CCC2(CC1)CN(c1ccncc1)C2,>57,-8%
COC(=O)C1=C(C)N(Cc2ccccc2)[C@]23O[C@](C(=O)OC)(C(=O)N2C1c1ccccc1)C1CCOC(=O)C13 (stereo not given in full),.,4%[8 µM]
COc1cccc2c(C)nc(Nc3nc(CSc4nnc(C)s4)cc(=O)[nH]3)nc12,>57,4%
COc1ccc(CC(=O)Nc2ccc(-c3nnc(-c4ccccc4)o3)cc2)cc1,.,2%
O=C(CN1CCN(c2ncccn2)CC1)NCCC1=CCCCC1,>57,-11%
COc1ccc(S(=O)(=O)N2CCCCCC2)cc1C(=O)OCC(=O)NC(N)=O,>57,-7%
CC1CN(Cc2nc3c(c(=O)n(C)c(=O)n3C)n2CCc2ccccc2)CC(C)O1 (stereo not given),>57,6%
COCCCNC(=O)CCNS(=O)(=O)c1ccc(C)cc1,>57,4%
Cc1noc(C)c1C(=O)OC(C(=O)NC1CCCC1)c1ccc(F)cc1 (stereo not given),>57,-21%
CCCN(CCC)C(=O)Cn1c(=O)n(CCCCC(=O)NCc2ccco2)c(=O)c2ccccc21,>57,-9%
Cc1ccnn2c(-c3ccccc3)c3c(=O)n(C)c(=O)n(C)c3c12,>57,-18%
CCOC(=O)CCCNC(=O)CN1C(=O)NC(CCc2ccccc2)C1=O (stereo not given),>57,?
CCOc1ccc(NC(=O)C(C)Sc2nnnn2C)cc1 (stereo not given),>57,7%
Cn1c(C(=O)NC2CC2)cc2c(=O)n(C)c3ccccc3c21,>57,3%
CCOC(=O)Cc1cnc(NC(=O)NC(C(=O)OCC)(c2ccccc2)C(F)(F)F)s1 (stereo not given),>57,14%
O=C(Cc1cccs1)N1CCN(c2ccccn2)CC1,>57,-1%
CCCNC(=O)CCC(=O)Nc1ncc(-c2ccc(C)cc2)n1C,>57,-2%
Cc1oc(/N=C/c2c(O)ccc3ccccc23)c(C#N)c1C,.,-4%

Looked up by structure from above (four):
molecule,SmPrx2 inh,Anthrax LT inh
COc1cc2nc(SCC(=O)NCc3ccco3)n(Cc3ccc(Cl)cc3)c(=O)c2cc1OC,>57,?
O=c1c[n+]([O-])c2ccccc2n1OCc1ccccn1,>57,-4%
Cn1ncc(C#N)c1/N=C/N1CCOCC1,>57,-2%
Cc1cc(C(c2nnnn2Cc2ccccc2)N2CCOCC2)c(C)n1-c1ccc2c(c1)OCO2 (stereo not given),>57,-2%
